High-throughput results deposited in PubChem BioAssay by National Center for Advancing Translational Sciences (NCATS).
TRPML1 inh: human mucolipin-1 channel inhibition | Q9GZU1 | TRPML1-inducible cells, Ca2+ dye fluorescence, FDSS; stronger effect = lower value; inhibition of EC80 agonist-evoked calcium signal | activity change, negative = inhibition, % (no concentration beside the values) | 390,000 compounds, 0.02% hits | AID 624415; in the data active means activity change below about -50%; inconclusive means about -30% to -50%; inactive means above about -30%;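 also: stimulus is agonist 54-4 at its EC80 concentration; % is scaled to controls: 0 for no effect and ±100 for the full control effect; compound concentration not given in the record; the text of the record puts the active cut at -80%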
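Calcium fluorescence in TRPML1-DL cells induced overnight with Tet: a 110 s read after compound pin addition, then a 110 s antagonist read after challenge with 54-4 at 4 uM final (EC80).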
PINK1 modulator: changes PINK1 expression | PINK1 immunofluorescence, high-content cytometry, 24 h | Potency, µM (highest dose often 76.6 µM), without a hit: at the highest dose activation (PINK1 increase), usual class: activators | 410,000 compounds, 0.2% hits | AID 624263; active = well fitted activation curve with a large enough effect; inconclusive = small, poorly fitted or top-dose-only effect; inactive = flat fitted curve, though single readings scatter; cell line not stated here;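 also: potency is read from the fitted curve at half-maximal effect; % of control where 0% means no effect; nearly all actives have a fitted effect of over 65% in size; a mitochondrial uncoupler was the plate control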
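Fluorescence from anti-PINK1 antibody, together with nuclear and cell stains, was scanned on a laser-scanning cytometer. Before staining, stable-line cells were incubated 24 hours with compounds at 5 concentrations; primary antibody 12 h at 10 degrees C.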
Sfp inh: blocks B. subtilis Sfp PPTase activity | Q9F4F7 | AID 1490 | Potency, µM, for the others: max response, negative = inhibition, actives largely listed as inhibitors | Biochemical Sfp PPTase activity, qHTS | 310,000 compounds, 3.5% hits; active = well fitted inhibition curve with a large enough effect; inconclusive = small, poorly fitted or top-dose-only effect, or another doubt; inactive = no such curve, though single readings can be large or run the other way;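 also: the enzyme is Sfp with the accession as filed and its product quenches rhodamine fluorescence; potency is read from the fitted curve at half-maximal effect; 0% = enzyme reaction without inhibitor and -100% = no enzyme wells; top concentration of the series not given in the record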
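Buffer: 50 mM Hepes-Na pH 7.6, 10 mM MgCl2, 0.01% Nonidet P-40, 0.01% BSA. Enzyme 15 nM, pre-exposed to compound 15 min; substrates then added and fluorescence change tracked over 30 min.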
Menin-MLL FL inh: displaces fluorescein MLL peptide from human menin. FP activity change, % at 61.4 µM. 290,000 tested, under 10 active. Fluorescence polarization, fluorescein-MLL peptide displacement from menin. AID 1766; inconclusive = falling polarisation curve, or a change in total fluorescence; inactive = total fluorescence flat and polarisation flat or rising; no compound was filed as active; the % refers to the polarisation; negative = inhibition;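 also: % of control where 0% means no effect; inhibitors lower the polarisation; unlabelled MLL peptide was the positive control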
ClpP mod: qHTS Assay for Activators of ClpP; ATP-dependent Clp protease proteolytic subunit (Bacillus subtilis (strain 168)), P80244; purified B. subtilis ClpP, FRET peptide cleavage, 20 min; Potency, µM (series often up to 57.5 µM), for inactives: top-dose activity change, negative = active; 340,000 compounds, 1.9% hits; AID 651965, 2013; active = well fitted falling curve with a large enough effect; inconclusive = small, poorly fitted or top-dose-only effect; inactive = no such curve, though single readings can be large or run the other way; also: potency is read from the fitted curve at half-maximal effect; the source files actives as falling curves though it sought activators and does not explain the sign; nearly all actives have a fitted effect of over 65% in size; many hits overshoot -100%
Target sequence (P80244 whole entry, looked up): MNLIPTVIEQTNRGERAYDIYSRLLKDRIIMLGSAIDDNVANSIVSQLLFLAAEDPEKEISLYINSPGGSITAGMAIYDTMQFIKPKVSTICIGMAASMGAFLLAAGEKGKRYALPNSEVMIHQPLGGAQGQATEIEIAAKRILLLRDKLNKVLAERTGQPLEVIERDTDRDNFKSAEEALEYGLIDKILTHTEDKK
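FRET quenching reversal measured ClpP activation: 10 microg/mL B. subtilis ClpP at pH 8 with the FRET-FV decapeptide, read at 430 nm after 320 nm excitation. The 20-min minus 0-min signal was scaled between DMSO/no-enzyme wells and ADEP (5.8 microM final).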
TRPV1 PAM: potentiators of human vanilloid receptor 1 (TRPV1); Q8NER1; TRPV1-expressing cells, Fluo-8 calcium influx, capsaicin EC20 potentiation; host cell line not named in the record; control for the full effect not named in the record; potentiation, % at 8.33 µM; 320,000 compounds, 0.02% hits; AID 540277; active means potentiation above 80%; inconclusive means 30% to 80%; inactive means below 30%; also: 0% is about no effect
Target sequence (Q8NER1 whole entry, looked up): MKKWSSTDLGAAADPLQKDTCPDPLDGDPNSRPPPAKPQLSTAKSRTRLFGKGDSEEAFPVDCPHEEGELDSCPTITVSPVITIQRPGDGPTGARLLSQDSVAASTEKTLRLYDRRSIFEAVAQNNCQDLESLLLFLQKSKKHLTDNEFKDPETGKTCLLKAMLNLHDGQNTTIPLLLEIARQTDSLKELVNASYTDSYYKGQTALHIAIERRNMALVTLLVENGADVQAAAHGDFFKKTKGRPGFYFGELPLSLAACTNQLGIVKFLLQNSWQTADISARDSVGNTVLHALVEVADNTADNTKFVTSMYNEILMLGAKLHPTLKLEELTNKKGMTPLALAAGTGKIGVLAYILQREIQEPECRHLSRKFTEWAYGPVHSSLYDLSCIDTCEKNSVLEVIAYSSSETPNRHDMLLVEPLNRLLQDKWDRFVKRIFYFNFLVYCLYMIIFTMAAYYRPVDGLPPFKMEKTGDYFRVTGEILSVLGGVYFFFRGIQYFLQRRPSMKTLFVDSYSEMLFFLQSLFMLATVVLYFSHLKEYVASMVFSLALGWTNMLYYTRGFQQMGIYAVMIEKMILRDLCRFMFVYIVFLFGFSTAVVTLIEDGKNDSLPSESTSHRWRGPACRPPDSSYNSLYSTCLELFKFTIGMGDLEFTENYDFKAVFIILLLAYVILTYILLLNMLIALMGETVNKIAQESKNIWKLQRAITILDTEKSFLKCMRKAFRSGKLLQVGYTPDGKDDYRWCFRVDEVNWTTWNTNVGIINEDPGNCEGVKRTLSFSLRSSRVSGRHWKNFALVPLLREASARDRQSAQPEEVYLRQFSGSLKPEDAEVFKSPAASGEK
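Cells expressing TRPV1 were dye-loaded with Fluo-8 and read kinetically: 10 s baseline, 3 min after compound (agonist portion), then 2 min after EC20 capsaicin (allosteric enhancer portion). Calcium-bound dye fluorescence at 480/520 nm.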
TRPML1 ag: activates the human TRPML1 channel. TRPML1-expressing cells, Ca2+ dye fluorescence, FDSS; host cell line not named in the record; reference of the full effect not given here. 410,000 compounds, 0.12% hits. activation, % (concentration not given with the values). Q9GZU1. AID 624414; in the data active = activation above about 50%; inconclusive = about 30% to 50%; inactive = below about 30%; also: 0% is about no effect; the text of the record puts the active cut at 80%
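Kinetic FDSS Ca2+ read in Tet-induced TRPML1-DL cells (ABD Ca8 dye plus quencher, 45-90 min RT loading): baseline, then compound, then 110 s agonist window; EC80 agonist 54-4 at 4uM final added afterwards for a 110 s antagonist window.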
* marks the source's active call; other numbers are inactive results; u = inconclusive; x = no result given; & = joins results of further samples; [ ] = another dose, or the depositor's remark. Random draw from the library, and some 4.4% of all compounds hit somewhere here.

SMILES | TRPML1 inh | PINK1 modulator | Sfp inh | Menin-MLL FL inh | ClpP mod | TRPV1 PAM | TRPML1 ag
S=C(NCc1ccccc1)NCc1ccco1 | -4.6 | -0.4% | -5.6% | -2.7 | -4.1% | -4.4 | 1.4
CN1c2ccccc2-c2nc(SCC(=O)Nc3ccccc3C(F)(F)F)ncc2S1(=O)=O | -24.4 | 0.2% | x | x | 4.6% | x | 2.4
O=C(N/N=C/c1ccccc1OC(F)F)C1=COCCO1 | -10.7 | 4.3% | 12.3% | 3.2 | x | 1.3 | -0.6
O=C(O)CNC(=S)N(Cc1cccs1)C1CCCCC1 | 6.0 | 0.3% | 13.4% | 0.7 | -1.7% | 5.3 | -0.4
O=c1cc(CN2CCN(c3ccccn3)CC2)nc2sccn12 | -7.1 | -1.6% | 8.9% | -3.0 | -9.2% | -1.1 | 0.5
CC1(C)c2ccccc2N2CC(=O)NC21/C=C/c1ccco1 (stereo not given) | -1.4 | -1.5% | 3.16µM* | u | -22.0% | -2.2 | -0.5
COc1c(O)ccc(C2NC(=O)NC(C)=C2C(=O)Nc2ccccc2C)c1[N+](=O)[O-] (stereo not given) | 6.2 | 6.2% | 9.8% | 0.0 | x | 5.7 | -0.6
CC1(C)Cc2c(sc(NC(=O)Cc3ccccc3)c2C#N)CO1 | 6.4 | 5.1% | -3.9% | 0.4 | x | -1.1 | 0.0
COc1ccc(CCNC(=O)COC(=O)c2ccc(Br)o2)cc1OC | -10.7 | 2.4% | 21.7% | 4.3 | -0.4% | -3.6 | -0.2
CN(C)c1ccc(NC(=O)CCSc2nc(-c3ccco3)cc(C(F)(F)F)n2)cc1 | -12.4 | 9.1% | x | x | 1.5% | x | -0.7
CC(=O)Nc1ccc(S(=O)(=O)N(C)CC(=O)N/N=C/c2cccc(O)c2)cc1 | 10.4 | 1.6% | 18.7% | -1.0 | x | -10.8 | 0.9
CCC(CC)c1nnc(NC(=O)Cc2ccccc2[N+](=O)[O-])s1 | 28.7 | -0.7% | 12.4% | 5.3 | x | -20.6 | 2.8
Cc1ccccc1N(CC(=O)Nc1ccc(S(=O)(=O)N2CCOCC2)cc1)S(C)(=O)=O | -0.7 | -0.5% | 14.7% | 3.8 | 44.5% | -3.6 | 0.6
Oc1ccccc1-c1nc(/C=C/c2ccc(F)cc2)no1 | -6.6 | 4.5% | x | x | -0.4% | x | 0.8
O=C1NC[C@@H](c2ccccc2)OC(=O)[C@H](Cc2ccc(F)cc2)C/C=C\C[C@@H]1CC(=O)N(CCO)Cc1ccccc1 | 52.4 | 2.6% | x | x | -1.9% | x | 3.3
Cc1nc(SCn2nnc3ccccc3c2=O)c2c(C)c(C)sc2n1 | x | x | 17.7% | -0.6 | x | -0.8 | x
Cc1cc(NC(=O)CCl)n(-c2nc3ccccc3s2)n1 | -9.2 | 6.7% | 9.9% | -1.9 | 0.9% | 2.4 | 0.4
Cc1nc(Nc2ccccc2)sc1C(=O)c1ccccc1 | 51.1 | 2.9% | 0.2% | -0.5 | x | -6.9 | 0.3
CCCCn1c(N)c(N(CC(C)C)C(=O)c2cc3c(s2)CCC3)c(=O)[nH]c1=O | 1.0 | 0.4% | x | x | x | 4.7 | -0.5
COc1cccc(/C=N/NC(=O)c2cnccn2)c1O | x | -0.3% | 25.9% | 0.5 | -0.5% | 4.0 | x
CCOc1ccc(NC(=O)C(C)NC(=O)c2ccccc2Cl)cc1S(=O)(=O)N1CCCC1 (stereo not given) | 14.4 | 2.2% | x | x | 0.1% | -2.4 | 0.3
CCOC(=O)c1oc2cc(O)ccc2c(=O)c1-c1ccccc1OC | 2.7 | 0.4% | 6.0% | 1.4 | 0.5% | 6.4 | -0.6
Cc1noc(C)c1COc1ccc(C(=O)Nc2ccccn2)cc1 | 22.9 | -0.1% | 12.0% | 0.5 | -0.6% | -17.4 | 1.8
CC(=O)NNC(=O)c1[nH]c2ccc(Br)cc2c1-c1ccccc1 | 2.6 | 1.8% | 4.4% | 2.5 | -1.9% | -1.7 | 1.3
O=C(CSc1nc(-c2ccc(F)cc2)nc2c1Cc1ccccc1O2)Nc1cccc(C(=O)O)c1 | 0.0&-3.7 | 2.1%&-0.6% | -21.2% | 15.4 | 2.0% | -2.0 | -0.1&-0.1
O=C(Nn1cnnc1)c1cc(Br)ccc1Cl | 28.1 | 1.2% | 2.5% | -6.0 | -1.6% | -28.6 | 0.3
CN(C)c1ccc(CNC(=O)C2CCN(Cc3cc4ccccc4n3Cc3ccccc3)CC2)cc1 | -7.1 | 1.2% | x | x | -24.9% | x | 0.4
CCc1ccccc1NC(=O)C1CCC(CNS(=O)(=O)c2ccc3c(c2)CC(C)N3C(C)=O)CC1 (stereo not given) | 25.0 | -0.2% | x | x | 1.2% | x | 2.0
COc1ccc(C(=O)C2CCCN(Cc3ccc(NC(C)=O)cc3)C2)cc1OC (stereo not given) | x | 2.4% | 17.6% | -1.6 | -6.2% | -8.5 | x
COc1cccc(CNC(=O)N2CCC(CN3CCC(C)CC3)CC2)c1 | -6.3 | 10.9% | x | x | 1.5% | x | -0.7
O=C(Nc1ccc(Cl)cc1F)c1cccc2ccccc12 | 20.1 | 5.9% | 18.1% | -3.8 | x | 10.5 | 0.5
CCOc1ccc(S(=O)(=O)/N=C(/Nc2ccc(OC)cc2)c2ccccc2)cc1 | -2.4 | 0.3% | -3.7% | x | 1.3% | 3.9 | 0.3
C=CCc1cccc(/C=N/n2cnnc2)c1O | -10.2 | -2.5% | 8.8% | u | -2.9% | -14.4 | 0.2
CC1CCN(Cc2nnnn2CCCC(=O)NCC(C)(C)N2CCOCC2)CC1 | 31.2 | 0.9% | 15.9% | x | -0.7% | -3.9 | -0.4
O=[N+]([O-])c1ccc2c(c1)N([O-])C1(CCCCC1)[N+]2=O | 23.9 | -0.8% | 7.08µM* | -2.0 | x | 2.0 | 0.0
O=C1Oc2ccccc2C(=O)/C1=C\N1CCN(c2ccccc2)CC1 | -1.4 | -2.0% | 25.3% | 5.1 | -1.1% | 3.2 | 1.8
CC1CCN(C(NC(=O)c2ccco2)C(=O)c2ccccc2)CC1 (stereo not given) | 7.3 | -3.3% | -3.4% | 3.7 | -1.9% | x | 4.1
COc1ncc2ncc(=O)n(CCc3ccccc3)c2n1 | x | -0.7% | 5.1% | 7.2 | x | x | x
O=C(NC(=S)Nc1ccc(C(F)(F)F)cc1)c1csnn1 | -2.9 | 6.6% | 10.5% | 8.7 | x | -9.2 | 0.4
CCN1CCCC1CNC(=O)CSc1cc(=O)n(CC)c2ccccc12 (stereo not given) | 5.1 | 6.1%[38.3 µM] | 8.8% | 10.3 | -12.8% | 1.3 | -0.1
Cn1nc(-c2ccc(Cl)cc2)c2cc(C(=O)N3CCN(c4ccccn4)CC3)sc21 | -5.5 | 0.9% | -8.3% | 3.2 | -2.2% | 6.7 | -0.6
COC(=O)/C=C/c1ccccc1S(=O)(=O)N(Cc1ccccc1)Cc1ccco1 | 59.2&10.5 | 4.0% | -21.4%&1.8% | 0.1&-1.7 | -0.7% | -15.5 | 4.4&-0.3
N#Cc1c[nH]n2c(NC3CCCCC3)c(-c3ccc(F)cc3)nc12 | 29.1 | 0.0% | x | x | -1.8% | x | 0.0
COc1cc(-c2n[nH]c(=O)o2)cc(OC)c1OC | 20.3 | -3.3% | -18.2% | -2.0 | 15.8µM* | 20.3 | 0.4
CCOC(=O)C1(Cc2ccccc2C)CCCN(C(=O)c2sccc2C)C1 (stereo not given) | 5.8 | -1.4% | 2.7% | x | 0.4% | 10.7 | 0.0
COc1cc(CNc2ncc(-c3ccc(Br)cc3)n2C)cc(OC)c1O | -6.3 | -1.4% | -29.2% | -2.1 | 2.3% | -3.9 | -0.7
COc1cc(Nc2nc3c(S(=O)(=O)c4cccc(Cl)c4)nnn3c3ccsc23)cc(OC)c1 | -23.9 | 1.3% | x | x | u | x | -0.5
O=C(OCC(=O)N(CCc1ccccc1)Cc1ccccc1)c1ccccc1[N+](=O)[O-] | 22.0 | -1.5% | x | x | -0.9% | -15.4 | 1.5
O=C(C1CCN(C2CCN(Cc3cccc4c3OCO4)CC2)CC1)N1CCOCC1 | 29.0 | 1.9% | 2.2% | 0.3 | x | -1.9 | 0.2
CC(=O)COc1ccc2c3c(c(=O)oc2c1C)CCCCC3 | -8.0 | -13.5%[38.3 µM] | 19.3% | 2.7 | 25.1µM* | -0.5 | 0.6
Later entries
SMILES | TRPML1 inh | PINK1 modulator | Sfp inh | Menin-MLL FL inh | ClpP mod | TRPV1 PAM | TRPML1 ag
CCCCC(NC(C)=O)c1nc2ccccc2n1CCCC (stereo not given) | 10.1 | 0.3% | -5.3% | 0.7 | 0.5% | -12.4 | 0.1
CS(=O)(=O)N1CCN(c2ccc([N+](=O)[O-])c3cccnc23)CC1 | 14.0 | 0.4% | 6.0% | 2.0 | 0.9% | -3.2 | -0.5
COC(=O)C(CO)NC(=O)C1CCCN1C(=O)CNC(=O)OCc1ccccc1 (stereo not given) | x | 0.2% | 6.5% | -1.6 | 0.4% | 1.1 | x
Cc1ccc(CNS(=O)(=O)c2ccc3c(c2)CCN3C(=O)C2CCC2)cc1 | -2.5 | 14.6% | 3.6% | x | 1.2% | -0.5 | 3.0
CCc1ccc(NC(=S)NC2CC3CCCC(C2)N3Cc2ccccc2)cc1 (stereo not given) | -3.7 | u | u | 5.6 | -1.9% | 8.5 | 0.4
CCCOc1ccc(C(=O)O/N=C(\CC)c2ccc(C)cc2)cc1 | 7.9 | 2.5% | u | 2.6 | -4.8% | -11.8 | 3.1
COc1cccc(CN2CCC2(C)C(=O)NCc2cccc(C(F)(F)F)c2)c1OC (stereo not given) | x | 0.5% | x | x | 0.4% | x | -0.4
CN(Cc1ccccc1)c1ncnc2[nH]ncc12 | -0.8 | -0.5% | x | x | x | x | 0.7
CC(=O)Nc1ccc(NC(=O)c2cc3c(=O)n(Cc4cccnc4)ccc3nc2C)cc1 | -17.5 | 1.8% | x | x | -15.1% | x | 0.0
CCN(CC(=O)NCc1ccc(F)cc1)C(=O)COc1ccc2ccccc2c1 | 23.0 | 7.8% | 10.7% | 3.9 | -4.1% | 2.1 | 0.6
CC(OC(=O)CC1CCCCC1)C(=O)Nc1ccc(S(N)(=O)=O)cc1 (stereo not given) | 11.3 | -2.9% | x | x | x | -4.0 | 0.9
